RE007 growth inh – qHTS Assay for Inhibitors of the HIV-1 protein Vpr; S. pombe RE007 Vpr strain, BacTiter-Glo ATP luminescence, 24 h; control for the full effect not named in the record; Potency, µM (doses to about 92.2 µM), for inactives: top-dose activity change, negative = less growth; 360,000 tested, 0.21% active; AID 651644, 2012; active = well fitted falling curve with a large enough effect; inconclusive = small, poorly fitted or top-dose-only effect; inactive = no such curve, though single readings can be large or run the other way;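 note: % is set by controls: 0 for no effect and ±100 for the full control effect; nearly all actives have a fitted effect of over 50% in size; the assay follows cell death caused by Vpr and the record does not say whether a fall means rescue or toxicity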
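Fission yeast strain RE007, carrying one chromosomally integrated HIV-1 vpr copy, was seeded at OD 0.01 in PMG+AL medium with 23 nL pinned compound. After 24 h at 30 °C and 99% humidity, viability was read by BacTiter-Glo luminescence.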
StopGo reporter – High Throughput Screening for Foot and Mouth Disease Virus Antivirals. 410,000 tested, 1.2% active. human cells with a luciferase reporter of 2A StopGo recoding; control for the full effect not named in the record. AID 1159524, 2015. Potency, µM (titrated, usually from 57.9 µM), without a hit: at the top dose signal change, negative = less light; active = well fitted falling curve with a large enough effect; inconclusive = small, poorly fitted or top-dose-only effect; inactive = no such curve, though single readings can be large or run the other way; tested in HEK293T cells; note: % is set by controls: 0 for no effect and ±100 for the full control effect; nearly all actives have a fitted effect of over 45% in size; luciferase light after 4 h
SARS PLP yeast – qHTS of Yeast-based Assay for SARS-CoV PLP; S. cerevisiae expressing SARS-CoV PLpro, growth rescue; control for the full effect not named in the record; Potency, µM (highest dose often 32.9 µM), inactives show at the top dose activity, positive = growth rescue; 330,000 tested, 0.19% active; AID 485353, 2010; active means well fitted rising curve with a large enough effect; inconclusive means small, poorly fitted or top-dose-only effect; inactive means no such curve, though single readings can be large or run the other way; note: 0% is about no effect; nearly all actives have a fitted effect of over 55% in size; growth read by luminescence after 48 h
Numbers without * were called inactive; ? = inconclusive; [ ] = remark or other dose. Potency is the fitted concentration of half-maximal effect. An excerpt; the hit share may differ from the screen's.

SMILES	RE007 growth inh	StopGo reporter	SARS PLP yeast
Cn1c(SCC(=O)Nc2cccc(S(=O)(=O)NC3=NCCCCC3)c2)nnc1-c1ccccc1	3%	2%	1%
CC(C(=O)NC1(C#N)CCCCC1)N(C)CC(=O)Nc1ccc(Cl)c(Cl)c1 (stereo not drawn)	11%	?	3%
O=C(Cn1cc(Br)ccc1=O)Nc1ccc2c(c1)OCO2	3%	10%	-6%
O=C(Cn1cnc2ccccc2c1=O)NNC(=O)c1cccc([N+](=O)[O-])c1	9%	12%	10%
Cc1cc(=O)n(-c2ccc(C(=O)O)cc2)[nH]1	5%	-6%	1%
COc1ccc(NC(=O)c2ccccc2NC(=O)CN2CCCCCC2)cc1	14%	-1%	0%
O=C(O)CC(Cc1ccc(Cl)cc1)C(=O)Nc1ccc([N+](=O)[O-])cc1 (stereo not drawn)	-1%	-3%	3%
O=C(COC(=O)c1ccc([N+](=O)[O-])s1)Nc1ccc(F)cc1	?	-16%	-5%[6.58 µM]
COc1ccc(NC(=O)CSc2nnc(C)s2)cc1S(=O)(=O)N1CCOCC1	12%	-8%	-7%
CC1CCCC(n2cnc3cc(C(=O)O)ccc32)C1C (stereo not drawn)	5%	-15%	-7%
N#Cc1ccc(C(=O)N2CCN(S(=O)(=O)c3ccc(Cl)s3)CC2)cc1	-6%	-29%	-1%
C#CCOCCOCCOCCNc1nc(N2CCN(C(=O)CCCCCCCCCCNC(=O)Cn3cc(CCCCCN)nn3)CC2)nc(N2CCN(C(=O)CCCCCCCCCCNC(=O)[C@H](CO)n3cc(CCCCCN)nn3)CC2)n1	17%	-20%	-26%
O=C(N[C@@H]1CCC(=O)N(CC[C@H](Sc2ccc(Br)cc2)c2ccccc2)CC1)OCc1ccccc1	-17%	?	-11%
C[C@H](CO)N1C[C@H](C)[C@@H](CN(C)Cc2ccncc2)Oc2c(NC(=O)c3ccncc3)cccc2C1=O	-23%	6%	1%
O=c1[nH][nH]cc1C=Nc1ccccc1Cl	-12%	17%	-1%
Cc1ccc(CNC(=O)[C@H](Cc2ccccc2)NC(=O)c2ccco2)cc1	-9%	-6%	3%
CCC1NC(C(=O)O)Cc2c1[nH]c1ccccc21 (stereo not drawn)	-11%	-3%	0%
COc1cc(NC(=O)c2ccccc2)c(OC)cc1NC(=O)CN1C(=O)NC2(CCCCC2C)C1=O (stereo not drawn)	-10%	-12%	1%[6.58 µM]
CCCCn1c(SCC(=O)Nc2cc(C)on2)nc2cc(S(N)(=O)=O)ccc21	-1%	-6%	-7%
COc1ccc2[nH]c(C)c(CCNC(=S)Nc3ccccc3OC)c2c1	-9%	-6%	1%
Nn1c(SCC(=O)NCCc2ccc(F)cc2)nnc1C1CCCCC1	17%	5%	1%
CC(C)(C)OC(=O)N[C@H](C(=O)OC(C)(C)C)c1ccc2c(c1)OCO2	-1%	-12%	-1%
CC(C)NC(=O)Nc1cccc2c1O[C@H](CN(C)C(=O)NC1CCCCC1)[C@H](C)CN([C@H](C)CO)C2=O	-1%	0%	-3%
COc1cccc(NC(=O)CN(C)C(=O)c2ccc(COc3ccccc3)o2)c1	-5%	0%	-6%
Cc1ccc(S(=O)(=O)N(C)C[C@H]2Oc3ccc(NC(=O)Nc4c(C)noc4C)cc3CC(=O)N([C@@H](C)CO)C[C@@H]2C)cc1	9%	-2%	-6%
CC(=O)Nc1nc2cc([N+](=O)[O-])ccc2s1	-16%	-8%	0%
C/C(=N\Nc1nc(C)cc(C)n1)c1ccc(N2CCOCC2)cc1	7%	0%	-1%
C=CCC[C@H](Cc1ccc(F)cc1)C(=O)OC[C@@H](NC(=O)[C@@H](CC=C)CC(=O)N[C@H](CO)Cc1ccccc1)C(C)(C)C	10%	?	-1%
Cc1cc(C)cc(OCC(=O)OCC(=O)NC2CCCCCC2)c1	-12%	-21%	1%
Cc1ccc(C2=NNC(=O)C(P(=O)(c3ccccc3)c3ccccc3)C2)cc1 (stereo not drawn)	12%	-1%	-4%

Three structures from above, ordered by number of heavy atoms, low to high.
SMILES	RE007 growth inh	StopGo reporter	SARS PLP yeast
C/C(=N\Nc1nc(C)cc(C)n1)c1ccc(N2CCOCC2)cc1	7%	0%	-1%
COc1ccc2[nH]c(C)c(CCNC(=S)Nc3ccccc3OC)c2c1	-9%	-6%	1%
Cc1ccc(S(=O)(=O)N(C)C[C@H]2Oc3ccc(NC(=O)Nc4c(C)noc4C)cc3CC(=O)N([C@@H](C)CO)C[C@@H]2C)cc1	9%	-2%	-6%

Going on with the list:
SMILES	RE007 growth inh	StopGo reporter	SARS PLP yeast
COc1ccc(N2CCN(C(c3cccs3)C(C)NC(=O)c3ccc4c(c3)OCO4)CC2)cc1 (stereo not drawn)	-7%	-8%	0%
COc1ccccc1/C=C/C(=O)NCC(=O)N/N=C/c1ccccc1	4%	-16%	-5%
COc1cc(-c2nc3ccccn3c2NCc2ccccc2)ccc1SC1CCCCC1	-6%	22µM*	-3%
COc1cc(O)c2c(=O)c3c(O[C@H]4O[C@@H](CO)[C@H](O)[C@@H](O)[C@@H]4O)ccc(O)c3oc2c1	1%	?	1%
Cc1ccc(/C=N/n2cc(-c3ccccc3)[nH]c2=S)s1	-7%	13%	29%
COC(=O)[C@@]12CCCCN1[C@H](c1ccc(-c3ccc(Cl)c(Cl)c3)c(OC)c1)[C@H]1C(=O)N(C)C(=O)[C@H]12	-2%	-14%	-1%
CN(C)S(=O)(=O)c1cccc(NC(=S)NCc2ccc3c(c2)OCO3)c1	-11%	14%	1%
Cc1cccc([N+](=O)[O-])c1NC(=O)CSc1nnc2ccccn12	-20%	-2%	7%
O=C(CNc1cccc2ccccc12)N/N=C/C=C/c1ccco1	3%	1%	-8%
CC(C)(C)OC(=O)NCc1ccc(CNC(=O)c2nc[nH]c2C(=O)N2CCc3ccccc3C2)cc1	0%	40µM*	1%
CC(C)NC(=O)N(C)C[C@H]1Oc2ccc(NC(=O)C3CCCCC3)cc2C(=O)N([C@H](C)CO)C[C@@H]1C	-5%	7%	5%
CCC(C)NC(=O)CCn1c(-c2ccc(F)cc2)cc(C(C)=O)c1C (stereo not drawn)	5%	-1%	1%
CC(=O)c1c(C)[nH]c(C(=O)OCC(=O)c2ccc(C)s2)c1C	13%	-7%	0%
COc1ccc(S(=O)(=O)N2CCOCC2)cc1NC(=O)CNC(=O)c1cccs1	18%	30%[activator]	2%
Cc1ccc(S(=O)(=O)N2CCN(C(=O)COC(=O)CNC(=O)c3ccc(C(C)(C)C)cc3)CC2)c(C)c1	17%	-11%	1%

Overlap with the part before: 4 entries; new compounds follow.
SMILES	RE007 growth inh	StopGo reporter	SARS PLP yeast
CCC(C)NC(=O)CCn1c(-c2ccc(F)cc2)cc(C(C)=O)c1C (stereo not drawn)	5%	-1%	1%
CC(=O)c1c(C)[nH]c(C(=O)OCC(=O)c2ccc(C)s2)c1C	13%	-7%	0%
COc1ccc(S(=O)(=O)N2CCOCC2)cc1NC(=O)CNC(=O)c1cccs1	18%	30%[activator]	2%
Cc1ccc(S(=O)(=O)N2CCN(C(=O)COC(=O)CNC(=O)c3ccc(C(C)(C)C)cc3)CC2)c(C)c1	17%	-11%	1%
CCc1ccc(/C(C)=N/NC(=O)c2ccc(-n3cnnn3)cc2)cc1	-8%	-4%	11%
Cc1ccc(S(=O)(=O)N2CCC(C(=O)OC(C)C(=O)N(C)c3ccccc3)CC2)cc1C (stereo not drawn)	2%	-13%	-12%
Cc1c(Cl)cccc1-n1c(SCC(=O)N2CCC(C(=O)O)CC2)nnc1-c1ccncc1	-13%	0%	1%
Cc1noc(/C=C/c2cccs2)c1S(=O)(=O)N1CCC(C(=O)NCCCN2CCCC(C)C2)CC1 (stereo not drawn)	5%	-12%	10%
COc1cc(OC)cc(C(=O)NC(C(=O)Nc2ccc3nc(C)sc3c2)C(C)C)c1 (stereo not drawn)	0%	-10%	10%
COc1cc(C(C)=O)ccc1OCC(=O)Nc1ccc(C)c(S(=O)(=O)N2CCCCCC2)c1	9%	?	4%
COc1ccc(NC(=O)CN(C)CC(=O)c2[nH]c(C)c(C(C)=O)c2C)cc1	2%	4%	2%
COc1ccccc1CCN=C(N)NS(=O)(=O)c1ccccc1	1%	-9%	-3%
O=C(Cc1cccc(NC(=O)C2CCN(C(=O)C3CCCCC3)CC2)c1)Nc1cccc(C(=O)N2CCCC2)c1	8%	-21%	4%
CCOC(=O)C1(c2ccccc2)CCN(CCC(=O)Nc2ccc(C(=O)OC)cc2)CC1	-5%	?	-3%
CC(C)[C@@H](N)C(=O)NC[C@H]1O[C@@H](n2cnc3c(N)ncnc32)[C@H](O)[C@@H]1O	-5%	-3%	7%
CC[C@@H]1CCCCc2ccccc2[C@H](C(=O)C[C@H](O)CC(C)=O)OC1=O	6%	-16%	-2%
CCOc1ccc(N=C2NC(=O)C(CC(=O)Nc3ccccc3)S2)cc1 (stereo not drawn)	-2%	-16%	1%
O=C(OCCc1cc2ccccc2c(=O)o1)c1ccc2c(c1)OCO2	-3%	51%[activator]	2%
CC(C)Cn1c(N)c(C(=O)COC(=O)c2cccnc2Cl)c(=O)n(C)c1=O	5%	-27%	-1%
O=C(COC(=O)c1cc(=O)[nH]c(=O)[nH]1)Nc1cccc(Cl)c1	7%	-24%	9%
CCCC[C@@H]1C=C(C(=O)O)[C@H](c2ccc(C#N)cc2)N1S(=O)(=O)c1ccc(C)cc1	4%	-14%	-1%
CCN(C[C@H]1N[C@@](C)(C(=O)OC)[C@H]2C(=O)N(Cc3ccccc3)C(=O)[C@@H]12)C(=O)C1CCCCC1	7%	?	1%
Cc1nnc(SCC(=O)N2CCN(c3cccc(Cl)c3)CC2)n1C1CC1	-1%	?	-9%
COc1ccccc1N1CCN(C(=O)c2cccc(S(=O)(=O)N3CCCCCC3)c2)CC1	2%	?	-10%
Cc1c(C(C)CCCO)oc(=O)c2c1Oc1c(C)c(C(C)C[C@@H](C)O)oc(=O)c1C2 (stereo partly drawn)	-7%	-21%	4%
O=C(NN=C1CCCCCC1)c1cccnc1	-3%	8%	0%
COc1ccccc1/C=C/C(=O)OCC(=O)N1c2ccccc2CC1C (stereo not drawn)	1%	-17%	-3%
CC(C)(C)C(=O)CSc1ccc(S(=O)(=O)N2CCCC2)cn1	4%	-22%	1%
CCN(CC)C(=O)[C@H]1C[C@H](CC(=O)NC/C=C(\C)CCC=C(C)C)C(=O)N2CCc3c([nH]c4ccc(Cl)cc34)[C@]12C	5%	0%	1%
COc1ccc(S(=O)(=O)Nc2ccc3c(c2)C(=O)N([C@H](C)CO)C[C@H](C)[C@@H](CN(C)C(=O)Nc2ccc(C(F)(F)F)cc2)O3)cc1	-19%	4%	0%
Cn1c2ccccc2c(=O)c2cc(C#Cc3cccc(N)c3)ccc21	-12%	67%[activator]	0%
O=C(O)c1cccc2c1C(=O)c1ccc(N3CCCCC3)cc1S2(=O)=O	7%	9%	1%
CCCNC(=O)c1onc(CSc2ccc(Cl)cc2)c1C(=O)NC(C)C	13%	-4%	3%
COc1ccc(S(=O)(=O)N(C)C[C@H]2Oc3ccc(NS(=O)(=O)c4cccs4)cc3CC(=O)N([C@H](C)CO)C[C@H]2C)cc1	8%	34%[activator]	-1%

Profiles from above.
Listed for COc1ccc(S(=O)(=O)Nc2ccc3c(c2)C(=O)N([C@H](C)CO)C[C@H](C)[C@@H](CN(C)C(=O)Nc2ccc(C(F)(F)F)cc2)O3)cc1 → RE007 growth inh = -19%; StopGo reporter = 4%; SARS PLP yeast = 0%
Listed for Cn1c2ccccc2c(=O)c2cc(C#Cc3cccc(N)c3)ccc21 → RE007 growth inh = -12%; StopGo reporter = 67%[activator]; SARS PLP yeast = 0%
Listed for COc1ccccc1N1CCN(C(=O)c2cccc(S(=O)(=O)N3CCCCCC3)c2)CC1 → RE007 growth inh = 2%; StopGo reporter = ?; SARS PLP yeast = -10%

Bioassay records from PubChem BioAssay.
